KCNQ2 inh – KCNQ2 potassium channel inhibitors, primary screen, cell-based, CHO-K1, FluxOR thallium flux, B-score (AID 2156) | 20 min; stronger effect = lower value; only compounds with negative scores are shown here; some inactives read as strong as hits | Potassium voltage-gated channel subfamily KQT member 2 (Rattus norvegicus), O88943 | hit rate 1.1% among 310,000 | B-score at 10 µM;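 active means fluorescence ratio B-score at most minus 3 library SDs, with starting brightness B-score within 2 library SDs, cut at about -5.5 in these data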
Target sequence (O88943 whole entry, looked up): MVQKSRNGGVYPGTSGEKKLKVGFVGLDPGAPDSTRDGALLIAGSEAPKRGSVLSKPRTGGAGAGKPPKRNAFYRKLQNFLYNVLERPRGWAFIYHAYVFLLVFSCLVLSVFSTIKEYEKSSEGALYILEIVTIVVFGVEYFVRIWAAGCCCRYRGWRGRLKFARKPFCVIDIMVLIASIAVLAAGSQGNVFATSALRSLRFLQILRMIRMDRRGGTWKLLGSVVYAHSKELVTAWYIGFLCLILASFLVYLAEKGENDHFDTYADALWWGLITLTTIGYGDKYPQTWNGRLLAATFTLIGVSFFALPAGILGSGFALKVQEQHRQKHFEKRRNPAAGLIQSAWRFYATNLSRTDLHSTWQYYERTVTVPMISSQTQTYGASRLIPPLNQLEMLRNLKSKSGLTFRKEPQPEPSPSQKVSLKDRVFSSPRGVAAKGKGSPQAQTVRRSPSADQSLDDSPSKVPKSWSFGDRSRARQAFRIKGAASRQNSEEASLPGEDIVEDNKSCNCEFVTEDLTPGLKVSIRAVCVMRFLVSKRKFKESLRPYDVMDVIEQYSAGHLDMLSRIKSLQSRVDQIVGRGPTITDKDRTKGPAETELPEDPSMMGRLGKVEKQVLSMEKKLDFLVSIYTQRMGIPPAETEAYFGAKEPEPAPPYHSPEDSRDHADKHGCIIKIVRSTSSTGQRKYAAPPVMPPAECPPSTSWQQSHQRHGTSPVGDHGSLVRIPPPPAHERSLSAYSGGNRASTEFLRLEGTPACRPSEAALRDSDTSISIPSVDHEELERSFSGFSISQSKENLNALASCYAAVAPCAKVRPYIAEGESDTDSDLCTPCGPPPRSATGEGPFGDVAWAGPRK
KCNQ2 inh baseline – second read-out of KCNQ2 inh, no call of its own (marks repeat the call); B-score; measured here: initial fluorescence intensity artifact check;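 brightness before thallium and not channel activity; 0 = typical well and far values either way flag optical interference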
Starred values were filed as active, the others as inactive; i = inactive.

#	KCNQ2 inh	KCNQ2 inh baseline	mol
1	i	0.9	NC(=O)C1(N2CCCCC2)CCN(S(=O)(=O)c2cc(Cl)sc2Cl)CC1
2	i	0.75	O=C(c1ccc(C(F)(F)F)cc1)C1CCCN(C(=O)Cn2cncn2)C1 (configuration not stated)
3	i	2.7	COc1ccc(-c2nn(-c3ccccc3)cc2/C=N/Nc2ccccn2)cc1OC
4	i	0.45	CCOC(=O)C1=C(CC)Nc2ccccc2N/C1=N\S(=O)(=O)c1cc(Br)ccc1Br
5	i	-0.81	Cc1nnc(SCC(=O)Nc2cccc(S(=O)(=O)NC3=NCCCCC3)c2)n1Cc1ccccc1
6	i	-0.62	Cc1ccccc1C(=O)NCc1nnc(SCC(=O)N2c3ccccc3Sc3ccccc32)n1C
7	i	-0.8	CCc1ccc(S(=O)(=O)NCc2cccs2)cc1
8	i	-0.03	CC(=O)N1C(=O)C2(C(C#N)=C(N)Oc3n[nH]c(-c4ccccn4)c32)c2ccccc21 (configuration not stated)
9	i	-0.9	CC1CCCC(NC(=O)/C=C/c2c(F)cccc2Cl)C1C (configuration not stated)
10	i	-0.03	Cc1ccc(NC(=O)CCN2CCC(C(N)=O)CC2)cc1
11	i	-0.76	CC(C)c1csc2nc3n(c(=O)c12)CCCCC3
12	i	0.27	CC(C)CNC(=O)c1ccccc1NC(=O)Nc1ccccc1
13	i	-0.05	COCC(=O)N1CCC(Oc2ccc(C(=O)N3CCCCCC3)cc2)CC1
14	i	80	CC[C@@]1(O)C(=O)OCc2c1cc1n(c2=O)Cc2cc3c(CN(C)C)c(O)ccc3nc2-1
15	i	0.03	O=C(/C=C/c1cccc(Cl)c1)OCc1cn2cc(Cl)ccc2n1
16	i	-0.88	COc1ccc(/C=C/C(=O)O)cc1S(=O)(=O)NCc1ccco1
17	i	2.3	O=c1c(C(c2ccc(O)cc2)c2c(O)nc3n(c2=O)CCCS3)c(O)nc2n1CCCS2
18	i	-0.57	Cc1nnsc1Sc1ccccc1
19	i	-0.71	COc1cc(C(=O)NCC(c2ccc(F)cc2)N2CCOCC2)ccc1OCc1ccccc1Cl (configuration not stated)
20	i	-0.34	COc1ccc(OC)c(CCNC(=O)c2nn(C)c3c2CS(=O)(=O)c2ccccc2-3)c1
21	i	3.6	CCOc1ccc(C(=O)NCC(=O)OCC(=O)c2ccc3c(c2)-c2ccccc2C3)cc1
22	i	0.32	CNS(=O)(=O)c1cnccc1N1CCN(c2cccc(Cl)c2)CC1
23	i	-0.68	O=c1oc2ccccc2cc1-c1nc2c(s1)CCCC2
24	i	0.72	COCCNC(=O)c1ccc(CN2CCC(Cc3ccccc3)CC2)cc1

Nos. 20 to 21, quoted:
#	KCNQ2 inh	KCNQ2 inh baseline	mol
20	i	-0.34	COc1ccc(OC)c(CCNC(=O)c2nn(C)c3c2CS(=O)(=O)c2ccccc2-3)c1
21	i	3.6	CCOc1ccc(C(=O)NCC(=O)OCC(=O)c2ccc3c(c2)-c2ccccc2C3)cc1

Next results
#	KCNQ2 inh	KCNQ2 inh baseline	mol
25	i	0.08	O=C(Nc1nc(-c2cccs2)cs1)c1cccc(S(=O)(=O)N2CCCCC2)c1
26	i	-0.55	Cc1ccc(SCC(=O)O/N=C(\N)c2ccncc2)cc1
27	i	1.6	COc1ccc(NC(=O)CN(C)C(=O)c2ccc3[nH]c4c(c3c2)CC(C)CC4)cc1 (configuration not stated)
28	i	0.08	Cn1c(=O)n(C)c2cc(NC(=O)COc3ccc(F)cc3F)ccc21
29	i	-0.15	O=C(Cc1cccs1)Nc1nnc(-c2ccncc2)s1
30	i	1.6	COc1ccc2[nH]cc(S(=O)(=O)c3ccc(F)cc3)c(=O)c2c1
31	i	-0.55	CN(CCC#N)C(=S)NC(=O)c1ccc(S(=O)(=O)N2CCOCC2)cc1
32	i	0.61	CC(=O)c1cccc(S(=O)(=O)N2CCCC(c3nc(-c4ccc(C)o4)no3)C2)c1 (configuration not stated)
33	i	0.24	Cc1ccc(C)c(N2CCN(CCCNC(=O)Cn3cccc3C(=O)c3ccccc3)CC2)c1
34	i	-3.5	OCCC#Cc1ccc(CN2CCN(Cc3ccccc3)C(CCO)C2)cc1 (configuration not stated)
35	i	0.79	NNC(=O)c1ccc(CN2C(=O)c3cccc4cccc2c34)cc1
36	i	2	CCN(CC)c1nc(N2CCOCC2)c(C#N)c2c1CN(C)CC2
37	i	-1.2	CCN1CCN(CCCNC(=O)C2c3ccccc3C(=O)N(c3ccc(OC)cc3)C2c2ccc(OC)cc2)CC1 (configuration not stated)
38	i	0.22	N#Cc1cccc(C#N)c1Oc1ccc(N)cc1
39	i	-0.76	O=C(Nc1ccccc1F)C1(c2ccccc2)CC1(Cl)Cl (configuration not stated)
40	i	0.54	Fc1ccc(/C=C2\CCCC3=C2Nc2ncnn2C3c2ccc(F)cc2)cc1 (configuration not stated)
41	i	1.2	CSc1ccccc1C(=O)N1CCCCC1
42	i	-0.85	Cc1cccc(NC(=O)CN2C(=O)S/C(=C\c3cccn3-c3cccc(C(=O)O)c3)C2=O)c1
43	i	2.1	C/C(=N\NC(=O)c1nnn(-c2nonc2N)c1-c1cccs1)c1cccnc1
44	i	-0.21	CC(C)[C@H](NC(=O)c1ccco1)C(=O)N(C)Cc1ccc(C(F)(F)F)cc1
45	i	-0.27	Cc1cccc2cc(C#N)c(N3CCN(C)CC3)nc12
46	i	0.11	COc1ccc(S(=O)(=O)Nc2ccc(F)cc2)cc1N(C)S(=O)(=O)c1ccc(Cl)cc1
47	i	-0.12	O=C(NNc1nc2c(F)cccc2s1)c1ccccc1
48	i	3.8	O=C(c1ccc(Br)o1)N(c1ccc(Br)cc1)C1C=CS(=O)(=O)C1 (configuration not stated)

A few values from the list.
entry 33 – KCNQ2 inh baseline: 0.24
entry 28 – KCNQ2 inh baseline: 0.08

Returning to the listing; the 4 compounds before the break are reprinted first.
#	KCNQ2 inh	KCNQ2 inh baseline	mol
45	i	-0.27	Cc1cccc2cc(C#N)c(N3CCN(C)CC3)nc12
46	i	0.11	COc1ccc(S(=O)(=O)Nc2ccc(F)cc2)cc1N(C)S(=O)(=O)c1ccc(Cl)cc1
47	i	-0.12	O=C(NNc1nc2c(F)cccc2s1)c1ccccc1
48	i	3.8	O=C(c1ccc(Br)o1)N(c1ccc(Br)cc1)C1C=CS(=O)(=O)C1 (configuration not stated)
49	i	-2.9	Cc1cccc(NC(=S)N2CCN(c3ccccc3)CC2)c1
50	i	0.15	CC(=O)N1CCN(C(=O)Nc2cccc(C(F)(F)F)c2)CC1
51	i	1.1	C/C(=N\Nc1ccc(Cl)cc1)c1ccccn1
52	i	0.63	Cc1cc(OCC(=O)C(C)(C)C)c2c(C)c(C)c(=O)oc2c1
53	i	0.06	O=C(O)CC(NNC(=O)c1ccccc1)C(=O)Nc1ccc([N+](=O)[O-])cc1 (configuration not stated)
54	i	0.33	CCOC(=O)C1C(C)=C(Nc2ccc(OC)cc2)C(=O)N1c1ccc(OC)cc1 (configuration not stated)
55	i	-0.08	CCOc1ccc(-c2[nH]ncc2Oc2ccccc2OC)c(O)c1
56	i	0.01	O=C(c1ccco1)N1CCN(c2nc3ccccc3c(=O)n2-c2ccccc2)CC1
57	i	1.4	O=C(OCCN1C(=O)c2ccccc2C1=O)c1ccc(S(=O)(=O)N2CCCCCC2)cc1
58	i	-0.8	Cc1cccnc1NC(=O)C1COc2ccccc2O1 (configuration not stated)
59	i	2.4	Cc1cccc(Cn2c(SCC(=O)Nc3ccccc3)nc3c2c(=O)[nH]c(=O)n3C)c1
60	i	0.04	CC(=O)c1c(C)[nH]c(C2=NNC(=NC(C)(C)C)SC2)c1C
61	i	1.6	CCCCC(=O)Nc1c2c(nn1-c1ccc([N+](=O)[O-])cc1)CS(=O)(=O)C2
62	i	-0.13	O=C(NNC(=O)c1ccc(F)cc1F)c1ccc(-n2cnnn2)cc1
63	i	-0.28	CCN1CCCC1CNCc1ccccc1OCc1ccc(F)cc1 (configuration not stated)
64	i	0.39	Cc1cccc(NC(=O)CSc2nnc(Cc3ccccc3)o2)c1
65	i	-1.6	CCCCN(C(=O)c1cc(CC)c(C)s1)c1c(N)n(CC(C)C)c(=O)[nH]c1=O
66	i	-0.84	COc1ccc(/C=C/C(=O)NNc2c(F)c(F)cc(F)c2F)cc1OC
67	i	1.2	COc1cccc(C(c2sc3nc(C)nn3c2O)N2CCc3ccccc3C2)c1 (configuration not stated)
68	i	1.8	COC(=O)c1cc(S(=O)(=O)NCc2cccc(OC)c2)cn1C
69	i	-0.23	CCCCN1C(=O)C(=O)NC[C@@H]1C(C)CC (some centres not stated)
70	i	3.7	c1ccc2c(CSc3ncnc4nc[nH]c34)cccc2c1
71	i	1.6	N/N=C1\CCCc2c1[nH]c1ccc([N+](=O)[O-])cc21
72	i	-0.02	COc1ccccc1-c1nc2n(n1)C(c1ccc(Cl)cc1)C(C(N)=O)=C(C)N2 (configuration not stated)
73	i	0.67	O=C(NN(CC(O)COc1ccccc1)CC(O)COc1ccccc1)c1ccccc1 (configuration not stated)
74	i	0.13	N#CCC(=O)N1CCN(C=O)CC1
75	i	0.21	CCCCC(=O)Nc1cccc(NC(=O)CC)c1
76	i	-0.01	CCOC(=O)C1=C(C)OC(N)=C(C#N)C1C1CCCCC1 (configuration not stated)
77	i	-0.33	COc1ccc(N2C(=O)C(CC(=O)Nc3ccc(Cl)cc3)N(NC(=O)c3cccc(F)c3)C2=S)cc1 (configuration not stated)
78	i	-1.8	C#Cc1cccc(NC(=O)c2ccc(Cl)cc2Cl)c1
79	i	-0.98	CC(=O)Nc1cc(Cl)c(N=Cc2ccc(O)cc2O)cc1Cl
80	i	1.9	N#Cc1ccccc1NC(=O)Nc1cccc(Cl)c1
81	i	0.59	CC(=O)Nc1ccc2c(c1)C(=O)N(c1ccc(C)cc1)C2=O
82	i	-0.71	COc1ccc(C(=O)COC(=O)CNS(=O)(=O)c2ccc(C)cc2)cc1
83	-6.9*	-1.3*	CN(C)c1nc(NCc2ccccc2)nc(SCC(=O)Nc2ccccc2Cl)n1
84	i	0.05	Cc1ccc(S(=O)(=O)N2CCN(C(=O)N3CCOCC3)CC2)c(C)c1
85	i	0.97	CC1(C)CC(=O)C(C=NCCN2CCN(C(=O)CC3CCCC3)CC2)=C(O)C1
86	i	2.1	C[C@@H]1CC=C[C@H]2[C@H]1C(=O)N(Cc1ccccc1)[C@H]2c1cccc([N+](=O)[O-])c1
87	i	1.3	COc1ccc(CCNc2oc(-c3ccc(C)cc3)nc2C#N)cc1OC
88	i	-1.9	COc1ccc(C2/C=C\CN(S(=O)(=O)/C=C/c3ccccc3)[C@H](Cc3ccccc3)C(=O)N2Cc2ccc(F)cc2)cc1 (some centres not stated)
89	i	1.7	CCN(CC)CCOC(=O)c1ccc([N+](=O)[O-])cc1
90	i	2.9	O=C(N1CCCCC1)C12CC3CC(C1)CC(C(=O)N1CCCCC1)(C3)C2
91	i	-1.4	CC(C)(C)N1CC(C(=O)O)CC1=O (configuration not stated)
92	i	-1.3	CCCCC(=O)NC(Nc1nc(C2CC2)cs1)(C(=O)OCC)C(F)(F)F (configuration not stated)
93	i	-1.4	COc1ccccc1N1CCN(C(c2cccs2)C(C)NC(=O)c2cccnc2)CC1 (configuration not stated)
94	i	-1.4	Cc1ccccc1C(=O)Oc1ccc(-c2csnn2)cc1
95	i	-0.94	Cc1cc(N/N=C/c2cccc(Br)c2)nc2ccccc12
96	i	-1.3	COc1ccc(-c2nc(N)n[nH]2)cc1OC
97	i	1.2	COc1ccc(CC2(CO)CCN(Cc3ccc(NC(C)=O)cc3)CC2)cc1
98	i	-0.38	CC1(C(=O)O)CCC(C(=O)Nc2ccc(S(N)(=O)=O)cc2)C1(C)C (configuration not stated)
99	i	-3.8	COc1ccccc1N1CCN(C(=O)c2ccc(C(C)(C)C)cc2)CC1
100	i	1.9	COC(=O)c1nc(NC(=O)c2ccc(Br)cc2)n[nH]1
101	i	0.75	CCCC(C)NC(=O)COc1ccc(S(=O)(=O)c2ccc(OCC(=O)NC(C)CCC)cc2)cc1 (configuration not stated)
102	-6.6*	-0.61*	C=CCC1(C#N)C(SC)=NC2=C(C(=O)CC(C)(C)C2)C1c1ccc(Br)cc1 (configuration not stated)
103	i	1.2	Fc1ccc2nc(C3CCCCN3Cc3nc(CC4CC4)no3)[nH]c2c1 (configuration not stated)
104	i	-0.06	c1ccc(CCNc2cnccn2)cc1

Two of these compounds, set out differently:
| No. | Molecule | KCNQ2 inh | KCNQ2 inh baseline |
| --- | --- | --- | --- |
| 103 | Fc1ccc2nc(C3CCCCN3Cc3nc(CC4CC4)no3)[nH]c2c1 (configuration not stated) | i | 1.2 |
| 97 | COc1ccc(CC2(CO)CCN(Cc3ccc(NC(C)=O)cc3)CC2)cc1 | i | 1.2 |

(further entries)
#	KCNQ2 inh	KCNQ2 inh baseline	mol
105	i	1.2	Cc1cccc(/C=N/NC(=O)c2cc(-c3cccnc3)nc3ccccc23)c1
106	i	0.17	COC(=O)c1ccc(CSc2nc3ccccc3c(=O)n2-c2ccccc2)o1
107	i	-0.22	CCOc1ccc(OCc2ccc(C(=O)NCC3CCCO3)o2)cc1 (configuration not stated)
108	i	0.08	COc1cc2c(cc1OC)CN(C(=O)CCOc1ccccc1)CC2
109	i	0.65	CCc1ccc(NC(=O)CN2CCc3ccccc3C2)cc1
110	i	-0.11	CC(c1cccnc1)N(CCN(C)C)C(=O)Nc1ccc(Cl)c(Cl)c1 (configuration not stated)
111	i	0.36	O=[N+]([O-])c1cccc(S(=O)(=O)NCC2CCCO2)c1 (configuration not stated)
112	i	1.8	COc1cccc(C2C(C#N)=C(N)N(N(C)C)C3=C2C(=O)CCC3)c1OC (configuration not stated)
113	i	0.5	O=C(NCCCN1CCCC1=O)c1cn(-c2ccccc2)nc1-c1ccccc1

Compound activity: PubChem BioAssay, Johns Hopkins Ion Channel Center

A portion of the library (hit frequency here may not be typical).
